VACV mCherry inh: inhibitors of vaccinia virus infection (mCherry reporter signal); Vaccinia virus mCherry reporter infection, fluorescence; about a quarter of the inactives have no number; Potency, µM (top dose mostly 36.5 µM), without a hit: at the highest dose activity change, negative = inhibition, usual class: inhibitors; 0.63% of 310,000 active; active = well fitted inhibition curve with a large enough effect; inconclusive = small, poorly fitted or top-dose-only effect; inactive = no such curve, though single readings can be large or run the other way; tested in A549 cells; note: nearly all actives have a fitted effect of over 35% in size; inactives centre near -10
Vaccinia Venus: inhibitors of vaccinia virus (Venus reporter). 0.46% of 330,000 active. Vaccinia virus Venus reporter expression, fluorescence. Potency, µM (highest dose often 36.5 µM), without a hit: top-dose activity change, negative = inhibition, actives largely listed as inhibitors; active means well fitted inhibition curve with a large enough effect; inconclusive means small, poorly fitted or top-dose-only effect; inactive means no such curve, though single readings can be large or run the other way; tested in A549 cells; note: nearly all actives have a fitted effect of over 30% in size; inactives centre near -10
* hit, by the source's call; i = inactive; ? = inconclusive; . = not tested or not shown; & = joins results of further samples; [ ] = another dose, or the depositor's remark. % is set by controls: 0 for no effect and ±100 for the full control effect; potency is the fitted concentration of half-maximal effect.

| SMILES | VACV mCherry inh | Vaccinia Venus |
| --- | --- | --- |
| Cc1cc(C)c(CN2CCN(CCCn3ccc(NC(=O)OCc4ccccc4)nc3=O)CC2)c(C)c1 | ? | ? |
| CC(CCc1ccccc1)NC(=O)Cn1c(=O)nc(-c2ccccc2)c2cc(Cl)ccc21 (configuration not stated) | i | -13% |
| Cc1nc(CNS(=O)(=O)c2cccnc2)cs1 | -18% | -15% |
| Nc1c2c(nc3sc4c(c13)CCCC4)CCCCC2 | . | -19% |
| COc1ccc(NC(=S)c2ccncc2)cc1 | ? | -14% |
| CC(C)C[C@@H](COc1ccccc1)N1CCN(C)CCC1=O | -21%&-19% | -8%&-14% |
| Cn1c(=O)n(C)c2cc(CNC(=O)[C@H]3O[C@@H](n4cnc5c(N)ncnc54)[C@H](O)[C@@H]3O)ccc21 | i | -9% |
| Cc1csc(SCCn2c(N3CCOCC3)nc3c2c(=O)[nH]c(=O)n3C)n1 | -3% | -3% |
| Cc1nc2ccn(Cc3cccnc3)c(=O)c2cc1C(=O)N1CCN(c2ccccc2F)CC1 | -9% | -7% |
| CCN(CC(=O)NCc1ccc(F)cc1)C(=O)/C=C/c1cccs1 | -9% | -14% |
| COc1cc(C(=O)NCC(=O)NCCSc2ccc(Br)cc2)cc(OC)c1OC | i | -13% |
| CC(=O)NC12CC3CC(C1)CC(C(=O)Oc1ccc(N(C)S(=O)(=O)c4cc(C)ccc4C)cc1)(C3)C2 | ? | -2% |
| COc1ccccc1C1C(C#N)=C(N)Oc2c1oc(CO)cc2=O (configuration not stated) | i | 2% |
| COc1cccc(C2=NOC(C(=O)N3CCc4ccccc4C3)C2)c1 (configuration not stated) | -4% | 4% |
| COCCn1c(C)cc(C(=O)COC(=O)Cc2n[nH]c(=O)c3ccccc23)c1C | ? | -16% |
| CN1c2ccccc2-c2ccccc2S1(=O)=O | i | -14%&-11% |
| Cc1ccc(S(=O)(=O)N2CCN=C2SCc2cccnc2)cc1 | -2% | -19% |
| Nc1cc(=O)[nH]c(SCC(=O)NC2CCCCCCC2)n1 | i | -14% |
| CCN(C(=O)CSc1nc2nc(C)cc(C)n2n1)c1ccccc1 | -4% | -11% |
| COc1ccc(Br)cc1Cn1nnc(C(=O)Nc2ccc(C)cc2C)c1N | ? | -22% |
| COc1ccc(O)c(C=Nc2cc(NC(C)=O)c(Cl)cc2Cl)c1 | i | -10% |
| COc1c(Cl)cc(C(=O)Nc2ccccc2C(=O)O)cc1Cl | -5% | -20% |
| O=C(CSCc1ccccc1)Nc1cc([N+](=O)[O-])ccc1F | -11% | -14% |
| CCC(=O)Nc1ccc(NC(=S)NC(=O)Cc2ccccc2)cc1 | -3% | -12% |
| Cc1cc2c(cc1C)NC(CC(=O)Nc1cccc(Cl)c1)C(=O)N2 (configuration not stated) | -24% | -14% |
| COc1cc2ccc(C(C)=O)cc2cc1OC | i | -6% |
| CCC(C)NC(=O)Cn1nc(Cc2ccncc2)c2ccccc2c1=O (configuration not stated) | -22% | -12% |
| CN(Cc1cc(Cl)cc(Cl)c1O)Cc1c(O)ccc2ccccc12 | ? | -26% |
| O=C1CCCc2ccccc2N1Cc1ccc(Cl)cc1 | . | -26% |
| Cc1cc2c(cc1S(=O)(=O)Nc1ccc(OC(F)(F)F)cc1)OCC(=O)N2 | -4% | -8% |
| O=C(CCCn1cnc([N+](=O)[O-])n1)Nc1ccc(Cl)cc1Cl | -26% | -21% |
| Cc1nc(N2CCN(c3ccccn3)CC2)c2c(C)c(C(=O)Nc3ccccc3F)sc2n1 | -9% | -7% |
| CCc1ccc(C2C(C(=O)Nc3ccccc3OC)=C(C)Nc3c(C(=O)Nc4ccc(C)cc4)cnn32)cc1 (configuration not stated) | i | -17% |
| O=C(c1ccc(CNS(=O)(=O)c2cccc(Cl)c2)cc1)N1CCCC1 | -10% | -8% |
| CN1CCN(c2ccnc(-c3ccccc3C(F)(F)F)n2)CC1 | -14% | 0% |
| CCCCN(C=O)c1c(CC)nc2c(OCCOc3ccc(F)cc3)cccn12 | 11% | -7% |
| N#CC(c1ccc(Cl)cc1)c1ccc2c(C(F)(F)F)cc(C(F)(F)F)nc2n1 (configuration not stated) | . | 14µM* |
| CCOC(=O)c1cc2c(C)nn(-c3ccccc3)c2s1 | 0% | -4% |
| COc1cccc(OCCCn2cc(/C=C3/C(=N)N4C=C(C)SC4=NC3=O)c3ccccc32)c1 | -11% | -5% |
| O=C(NCc1ccccc1)C(c1cc2ccccc2o1)n1c(=O)c(-c2cc3ccccc3[nH]2)nc2ccccc21 (configuration not stated) | -13% | 10% |
| CC(C)C[C@H]1CN=C(Nc2ccccc2)N1CCC1CCCC1 | -1% | -20% |
| CC1CC1c1ccc(/C=C(\C#N)C(=O)Nc2cccc(Cl)c2Cl)o1 (configuration not stated) | i | -3% |
| COCCn1c(SCC(=O)NC2CCCCC2)nc2c(c1=O)SCC2 | i | -6% |
| NS(=O)(=O)c1ccc(NCc2ccccc2OCc2ccc(F)cc2)cc1 | . | ? |
| COc1cccc(C(=O)N2c3ccc(C)cc3C(C)(c3ccccc3)CC2(C)C)c1 (configuration not stated) | -13% | -22% |
| Cc1ccc(NC(=O)C2CC(=O)N(c3ccc4c(c3)OCCO4)C2)cc1S(=O)(=O)N1CCCCCC1 (configuration not stated) | ? | ? |
| Cc1ccc(NC(=O)N2CCN(Cc3nc4ccc(C)cc4o3)CC2)cc1 | -18% | -19% |
| O=C(CC(O)c1ccncc1)c1ccccc1O (configuration not stated) | -25% | -8% |
| O=C(NCCOc1ccc(F)cc1)C1CCN(S(=O)(=O)c2ccccc2)CC1 | -4% | -12% |
| C[C@@H](OC(=O)N(C)Cc1ccccc1)[C@H]1O[C@]2(C)CCCC[C@H]1O2 | i | -19% |
| Cn1c(=O)n(CC(=O)NC2CCCCC2)c(=O)c2ccccc21 | . | -12% |
| COCCOc1ccc(C(F)(F)F)cc1NC(=O)COC(=O)C1=COCCO1 | i | -15% |
| Cc1ccc2c(c1)NC(=O)C(CC(=O)NCCCN1CCCCC1C)O2 (configuration not stated) | -1% | 6% |
| Cc1c(S(=O)(=O)O)oc2c1C(=O)C(=O)c1c-2ccc2c1CCCC2(C)C | 3% | 33%[activator] |
| COCCNc1nc(NCCCN(C)C)c2sccc2n1 | 0% | 3% |
| Cc1ccc(Cl)cc1N1CCN(C(=O)c2cccn2-c2nnc(N3CCCCC3)s2)CC1 | -13% | -19% |

Later entries.
| SMILES | VACV mCherry inh | Vaccinia Venus |
| --- | --- | --- |
| OC[C@H]1O[C@@H](n2cnc3cc(Cl)c(Cl)cc32)[C@H](O)[C@@H]1O | -25% | ? |
| COC(=O)c1ccc(NC(=O)c2cccc(C)c2[N+](=O)[O-])cc1 | i | -7% |
| Cc1cccnc1NC(=O)Nc1cccc(Cl)c1 | -8% | -6% |
| Cc1cn2c(=O)cc(COC(=O)c3ccc(NC(=O)c4ccccc4C)cc3)nc2s1 | -10% | -7% |
| CNC(=S)N(CCc1c(C)[nH]c2ccc(Cl)cc12)Cc1cccnc1 | -27% | -23% |
| CC(C)c1ccc(C(=O)NCc2ccc(Cl)cc2)cc1 | -9% | -23% |
| O=C(Nc1cc(Br)ccc1O)c1cc(-c2ccco2)on1 | -21% | -14% |
| COc1ccc(NC(=O)c2cc(-c3cc(F)ccc3OC(C)C)n[nH]2)c(OC)c1 | 9% | -5% |
| O=C(Nc1nc(-c2ccccc2)cs1)c1cccc(S(=O)(=O)N2CCN(Cc3ccccc3)CC2)c1 | -21% | -18% |
| Cc1ccc(C2C(C(=O)c3cc4ccccc4o3)=C(O)C(=O)N2c2cc(C)on2)cc1 (configuration not stated) | i | -6% |
| COCCNc1cc(C)nc2c(-c3ccccc3OC)c(C)nn12 | -14% | -12% |
| CN1C(=O)C(C)(C)c2cc(S(=O)(=O)N3CCN(c4ccccc4F)CC3)ccc21 | i | -17% |
| COc1cccc(CNC(=O)CCS(=O)(=O)c2ccc3c(c2)oc(=O)n3C)c1 | -10% | 0%&0% |
| CC(=O)C1=CCC(c2ccc(Cl)cc2)N(S(=O)(=O)c2ccccc2)C1 (configuration not stated) | 10% | -14% |
| Cc1onc(-c2c(Cl)cccc2Cl)c1C(=O)NC(=S)Nc1sc2c(c1C(N)=O)CCC(C)C2 (configuration not stated) | -14% | -7% |
| C=CCn1c(C(C)C)nc2ccccc21 | -15% | -19% |
| O=C(NCCN1CCOCC1)C(=O)NCc1ccc2c(c1)OCO2 | -18% | -9% |
| CCC(C(=O)O)N1C(=O)/C(=C/C(C)=C/c2ccccc2)SC1=S (configuration not stated) | i | 1% |
| CCOC(=O)Nc1c(C(=O)OC)[nH]c2cc(OC)ccc12 | ? | -17% |
| CCOc1ccc(NC(=O)CSc2nnc(Cn3cnc4ccccc43)n2C)cc1 | . | -13% |
| Cc1ccc(S(=O)(=O)c2[nH]c(-c3ccccc3)nc2SCC(N)=O)cc1 | -11% | -9% |
| O=C(Nc1cc2c3c(c1)CC(=O)N3CCC2)c1ccc(Br)o1 | -2% | -16% |
| O=C(CSc1nc2ncccc2o1)Nc1cccc(C(F)(F)F)c1 | -2% | -3% |
| COCCN(CC(=O)NCC1CCCO1)C(=O)CCC(=O)Nc1ccccn1 (configuration not stated) | i | 2% |
| Cc1nonc1CN(C)C(=O)c1ccc(OC2CCN(C(=O)c3cccnc3)CC2)cc1 | -10% | -3% |
| COc1ccccc1CNC(=O)CCCCn1c(=O)c2ccccc2n(CC(=O)Nc2cc(Cl)ccc2C)c1=O | -21% | -26% |
| Cc1cc(/C=C(\C#N)C(=O)NCc2cccs2)c(C)[nH]1 | -26% | -19% |
| CCCc1cc(=O)[nH]c(/N=C(/NC(=O)c2ccccc2)Nc2ccc3c(c2)OCCO3)n1 | i | -12% |
| O=C1COc2ccc(C(=O)COC(=O)c3cnc(Cl)c(Cl)c3)cc2N1 | -2% | -10% |
| CCN1CCN(c2ccc(S(=O)(=O)N3CCCCC3)cc2NC(=O)Cc2ccc(OC)cc2)CC1 | ? | ? |
| O=C(CCn1c(=O)c2cccn2c2ccc(F)cc21)NCc1ccccc1F | 6% | 6% |
| Cc1c(Cl)cccc1NC(=O)CNC(=O)CCCc1nc2ccccc2c(=O)[nH]1 | -20% | -19% |

By substructure: the compounds so far containing bromine
| SMILES | VACV mCherry inh | Vaccinia Venus |
| --- | --- | --- |
| COc1cc(C(=O)NCC(=O)NCCSc2ccc(Br)cc2)cc(OC)c1OC | i | -13% |
| COc1ccc(Br)cc1Cn1nnc(C(=O)Nc2ccc(C)cc2C)c1N | ? | -22% |
| O=C(Nc1cc(Br)ccc1O)c1cc(-c2ccco2)on1 | -21% | -14% |
| O=C(Nc1cc2c3c(c1)CC(=O)N3CCC2)c1ccc(Br)o1 | -2% | -16% |

Additional compounds.
| SMILES | VACV mCherry inh | Vaccinia Venus |
| --- | --- | --- |
| CC(C)COC(=O)N(C)C[C@@H]1OCc2cnnn2CCCC(=O)N([C@H](C)CO)C[C@@H]1C | i | -8% |
| C=C1CCN([C@@H](CC(C)C)C(=O)NCCC(C)C)S(=O)(=O)c2ccccc21 | i | -18% |
| CCCOc1ccc(CSc2nnc(CCC)n2N)cc1 | . | 9% |
| CCCSCCCNC(=O)C1CCN(c2nn3cc(-c4ccc(F)cc4)nc3s2)CC1 | -26% | -30% |
| CCOC(=O)C(=N/O)/C(C)=N/NC(=O)C(=O)Nc1cc(Cl)ccc1Cl | -10%[7.34 µM] | -4%[7.34 µM] |
| Cc1ccc(Nc2nc(Oc3ccc(OCc4ccccc4)nn3)nc(N3CCOCC3)n2)cc1 | . | 1% |
| CC1=[N+](C)c2c(ccc3cccnc23)C1(C)C | 215%[activator] | 25% |
| COC(=O)c1ccc(-c2noc(CN(Cc3nccn3C)C(C)C)n2)cc1 | 14% | -1% |
| Fc1cccc(CCNCc2ccccn2)c1 | -7% | 1% |
| COc1ccc(/C=C(/NC(=O)c2ccc(Br)cc2)C(=O)N2CCOCC2)cc1 | -11% | -7% |
| Cc1ccc(CC(=O)Nc2ccc(F)c([N+](=O)[O-])c2)cc1 | -4% | 5% |
| O=C(O)CC1CCC1CC(=O)O (configuration not stated) | -15% | -11% |
| CCOC(=O)NC1(C(F)(F)F)NC(=O)N(c2ccc(C)c(C)c2)C1=O (configuration not stated) | -3% | -5% |
| COc1ccc(/C(C)=N/NC(=O)Cc2ccc(Cl)cc2)cc1 | -14% | -12% |
| CCC(C)(C)n1nnnc1C(c1ccccc1)N1CCc2ccccc2C1 (configuration not stated) | . | -8% |
| COC(=O)C=C1CCC2C3CCC4=CC(=O)C(Br)CC4(C)C3C(=O)CC12C (configuration not stated) | -5% | -12% |
| Cc1ccc(S(=O)(=O)CC(=O)Nc2nc3ccccc3s2)cc1 | i | -15% |
| CCOC(=O)CNC(=O)CSc1nnc(C)c(=O)[nH]1 | i | 5% |
| O=C(COc1ccc(Br)cc1)Nc1nnc(-c2cccnc2)s1 | -17% | -11% |
| NNC(=O)c1cc2cc(OC(F)(F)F)ccc2[nH]1 | -13% | 2% |
| O=C(Nc1cc(Cl)cc(Cl)c1)c1cnn2c1NC(=C1CC1)C=C2C(F)F | -8% | -8% |
| Cc1ccccc1NC(=O)NC1CCCCC1C (configuration not stated) | -2% | -8% |
| Cc1cc(C)nc(NS(=O)(=O)c2ccc(NC(=S)NC(=O)C3CCCC3)cc2)n1 | ? | 10µM* |
| Cc1cc(C)cc(NS(=O)(=O)c2ccc(-c3cc(C)no3)cc2)c1 | -29% | ? |
| O=C(Nc1ccc(F)cc1)C1CCN(S(=O)(=O)c2ccc3c(c2)CCCN3C(=O)C2CCC2)CC1 | -11% | -11% |
| CCCn1c(SCc2nc3ccccc3s2)n[nH]c1=O | -2% | 2% |
| Cc1cc(C(=O)OCC(=O)NC(C)c2ccc(F)cc2)c(C)o1 (configuration not stated) | -10% | -1% |

Screens from PubChem.
